# Vaccinia inh: blocks a specific stage of Vaccinia orthopoxvirus infection, primary screen, cell-based, single point; Vaccinia-infected cells, mCherry/Venus stage reporter fluorescence; hits give low values; some inactives read as strong as hits; activity change (mCherry), % (concentration not given with the values); hit rate 0.01% among 89,000; AID 1053133, 2014;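 active = mCherry past -33% and 40 or more points under the early reporter, replicates agreeing; inconclusive = past -33% without that gap or agreement; tested in A549 cells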;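 note: scaled between vehicle wells and reference inhibitor wells; 23 nL library stock went into each well; one replicate is shown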
# Vaccinia inh Venus: also measured in Vaccinia inh; calls as there; activity change (Venus), %; measured here: Venus reporter, other viral stage;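 negative = less Venus signal; first of two replicates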
# Numbers without * were called inactive; ? = inconclusive; · = not tested or not shown. An excerpt; count on the stated rates, not on these rows.
SMILES,Vaccinia inh,Vaccinia inh Venus
C[C@H](CO)N1C[C@H](C)[C@H](CN(C)C(=O)Nc2ccc(C(F)(F)F)cc2)Oc2ncc(C#C[C@@H](C)O)cc2C1=O,8,6
C[C@H](CO)N1C[C@H](C)[C@H](CN(C)CC2CCCCC2)Oc2ccc(NC(=O)CCCN(C)C)cc2CC1=O,4,-7
C[C@H]1CCCCO[C@@H](CN(C)C(=O)NC2CCCCC2)[C@@H](C)CN([C@@H](C)CO)C(=O)c2cc(NS(=O)(=O)c3cccs3)ccc2O1,-24,-17
O=C(NCc1cc(F)cc(F)c1)[C@@H]1[C@@H](CO)[C@@H]2Cn3c(cccc3=O)[C@H]1N2,5,1
COCC(=O)Nc1ccc2c(c1)C(=O)N(C)[C@H]1CC[C@@H](CC(=O)NC3Cc4ccccc4C3)O[C@@H]1CO2,14,13
CN(C)C(=O)c1ccc(-c2ccc([C@H]3[C@H](C#N)N(S(C)(=O)=O)[C@H]3CO)cc2)cc1,16,5
C[C@H](CO)N1C[C@H](C)[C@@H](CN(C)CC2CCCCC2)OCc2cn(nn2)CCCC1=O,1,6
Cc1ccc(NC(=O)Nc2ccc3c(c2)C(=O)N(C)[C@H]2CC[C@H](CC(=O)O)O[C@@H]2CO3)cc1,13,4
O=C(C[C@@H]1C[C@@H]2c3cc(NC(=O)NC4CCCC4)ccc3O[C@@H]2[C@@H](CO)O1)NCc1ccc(Cl)cc1,5,7
C[C@@H]1CCCCO[C@H](CN(C)S(C)(=O)=O)[C@H](C)CN([C@@H](C)CO)C(=O)c2cc(NS(=O)(=O)c3ccccc3)ccc2O1,35,19
C[C@@H]1CN([C@H](C)CO)C(=O)c2cc(-c3cccc(F)c3)cnc2O[C@H]1CN(C)CC1CCOCC1,-6,10
C[C@@H]1CCCCO[C@H](CN(C)C)[C@@H](C)CN([C@@H](C)CO)C(=O)c2cc(NC(=O)CCC(F)(F)F)ccc2O1,1,9
CO[C@@H]1CN(C)C(=O)c2cc(NC(=O)NC(C)C)ccc2OC[C@H](C)N(C(=O)NC(C)C)C[C@H]1C,-7,-6
COc1ccc(NC(=O)N(C)C[C@H]2Oc3ccc(NC(=O)CCC(F)(F)F)cc3C(=O)N([C@@H](C)CO)C[C@@H]2C)cc1,3,5
C[C@@H]1CN([C@H](C)CO)S(=O)(=O)c2ccc(C#CC3CC3)cc2O[C@@H]1CN(C)Cc1ccccc1,?,·
CC(=O)N(C)C[C@H]1Oc2cc(-c3cccc(F)c3)ccc2S(=O)(=O)N([C@@H](C)CO)C[C@@H]1C,-10,15
CN1CCN(C(=O)C[C@H]2CC[C@@H]3[C@H](COC[C@@H](O)CN3C(=O)C3CC3)O2)CC1,11,8
O=C(C[C@H]1C=C[C@@H](NC(=O)Nc2cc(F)ccc2F)[C@H](CO)O1)NCc1ccccn1,-2,2
Cc1noc(C)c1S(=O)(=O)Nc1ccc2c(c1)C(=O)N([C@H](C)CO)C[C@H](C)[C@H](CN(C)C(=O)Nc1ccccc1)OCCCC[C@H](C)O2,-23,-20
COc1cccc(C#Cc2cnc3c(c2)C(=O)N([C@H](C)CO)C[C@H](C)[C@H](CN(C)C(=O)C2CCC2)O3)c1,-15,-19
CC(C)C#Cc1cnc2c(c1)C(=O)N([C@@H](C)CO)C[C@H](C)[C@@H](CN(C)C(=O)C1CCC1)O2,5,2
C[C@@H]1CCCCO[C@H](CN(C)Cc2ccc(C(F)(F)F)cc2)[C@H](C)CN([C@H](C)CO)C(=O)c2cc(N(C)C)ccc2O1,-5,-7
C[C@H](CO)N1C[C@H](C)[C@@H](CN(C)CC2CCCCC2)OCCCC[C@H](C)Oc2ccc(N(C)C)cc2C1=O,12,-1
COc1ccc([Si](C)(C)[C@@H]2[C@@H](CCn3cc([C@H](O)c4ccccc4)nn3)O[C@]3(C(=O)N(C)c4ccccc43)[C@H]2C)cc1,?,·
COc1ccc(S(=O)(=O)Nc2ccc3c(c2)C(=O)N([C@H](C)CO)C[C@H](C)[C@@H](CN(C)Cc2ccc(C(F)(F)F)cc2)OCCCC[C@@H](C)O3)cc1,-21,-10
CC(C)NC(=O)N(C)C[C@H]1Oc2ccc(NC(=O)Nc3ccccc3)cc2CC(=O)N([C@H](C)CO)C[C@H]1C,13,5
C[C@H](O)C#Cc1cnc2c(c1)C(=O)N([C@@H](C)CO)C[C@@H](C)[C@H](CN(C)C(=O)Cc1ccccn1)O2,-2,-1
C[C@@H]1CN([C@H](C)CO)C(=O)c2cc(NC(=O)CCCCCC(=O)Nc3ccccc3N)ccc2O[C@H]1CN(C)S(=O)(=O)c1ccc(F)cc1,6,-2
CC(=O)N(C)C[C@@H]1Oc2cc(-c3cncnc3)ccc2S(=O)(=O)N([C@H](C)CO)C[C@@H]1C,21,5
CCC(=O)N[C@@H]1CC[C@@H](CCn2cc(-c3cccc(OC)c3)nn2)O[C@H]1CO,-5,-5
O=C(C1CCOCC1)N1C[C@H]2[C@@H](c3ccccc31)[C@@H](CO)N2C(=O)Cc1ccccc1,13,12
CC(C)N(C[C@@H]1[C@@H](c2ccccc2)[C@@H](CO)N1S(C)(=O)=O)C(=O)CN(C)C,0,9
C[C@H](CO)N1C[C@H](C)[C@H](CN(C)Cc2ccc3c(c2)OCO3)Oc2ccc(NC(=O)Cc3ccccc3)cc2CC1=O,-12,-8
CC(C)NC(=O)N(C)C[C@H]1OCCCC[C@H](C)Oc2ccc(NC(=O)Nc3ccc(C(F)(F)F)cc3)cc2C(=O)N([C@H](C)CO)C[C@@H]1C,-13,-2
CN1C(=O)c2cc(NC(=O)Cc3ccccc3)ccc2OC[C@H]2O[C@@H](CC(=O)O)CC[C@H]21,12,11
C[C@@H]1CCCCO[C@H](CN(C)C(=O)CCC(F)(F)F)[C@H](C)CN([C@H](C)CO)C(=O)c2cc(NC(=O)Cc3ccccc3)ccc2O1,-17,-2
C[C@H]1CN([C@@H](C)CO)C(=O)Cc2cc(NC(=O)CCC(F)(F)F)ccc2O[C@H]1CN(C)Cc1ccc2c(c1)OCO2,-4,-3
COCC#Cc1ccc([C@H]2[C@@H](CO)N3C(=O)CN(C(=O)c4cccnc4)C[C@@H]23)cc1,29,26
CNC[C@@H]1Oc2c(NC(=O)Nc3ccc4c(c3)OCO4)cccc2C(=O)N([C@@H](C)CO)C[C@@H]1C,-5,-5
C[C@@H]1CN([C@@H](C)CO)S(=O)(=O)c2ccc(C#Cc3ccccc3F)cc2O[C@H]1CN(C)C(=O)Cc1ccccc1,?,·
O=C(C[C@@H]1CC[C@@H]2[C@H](COC[C@@H](O)CN2C(=O)c2ccc3c(c2)OCO3)O1)NCCN1CCCC1,15,16
C[C@@H]1CCCCO[C@H](CN(C)Cc2ccc(C(=O)O)cc2)[C@@H](C)CN([C@H](C)CO)C(=O)c2cc(NS(=O)(=O)c3ccc(Cl)cc3)ccc2O1,11,7
CCCNC(=O)C[C@H]1CC[C@H]2[C@@H](COC[C@H](O)CN2Cc2ccc(Cl)c(Cl)c2)O1,-6,0
CO[C@H]1CN(C)C(=O)c2ccc(NS(=O)(=O)c3ccccc3)cc2OC[C@H](C)N(Cc2ccccn2)C[C@H]1C,21,15
C[C@@H]1CN([C@H](C)CO)C(=O)CCCn2cc(nn2)CO[C@H]1CN(C)Cc1ccccc1C(F)(F)F,14,11
C[C@H](CO)N1C[C@H](C)[C@H](CN(C)C)Oc2cc(-c3cccc(C#N)c3)ccc2S1(=O)=O,21,7
C[C@H](CO)N1C[C@H](C)[C@@H](CN(C)Cc2cccnc2)Oc2ncc(-c3ccc(C#N)cc3)cc2C1=O,28,19
C[C@@H]1CN([C@H](C)CO)C(=O)c2cc(NC(=O)c3ccccc3)ccc2O[C@@H](C)CCCCO[C@@H]1CN(C)Cc1ccc(C(=O)O)cc1,10,2
C[C@H](CO)N1C[C@H](C)[C@@H](CN(C)C(=O)C2CCCCC2)OCCCC[C@H](C)Oc2ccc(NC(=O)Nc3ccc4c(c3)OCO4)cc2C1=O,-26,-23
CC(C)NC(=O)N(C)C[C@H]1Oc2ncc(-c3cncnc3)cc2C(=O)N([C@H](C)CO)C[C@H]1C,1,8
O=C(NCCN1CCCCC1)[C@@H]1N[C@@H]2c3ccc(-c4ccccc4)c(=O)n3C[C@@H]2[C@H]1CO,12,10
C[C@H](CO)N1C[C@H](C)[C@@H](CN(C)C(=O)Nc2ccccc2)Oc2ncc(C3=CCCC3)cc2C1=O,13,12
Cc1ccc(S(=O)(=O)N(C)C[C@@H]2OCCCC[C@@H](C)Oc3ccc(NS(=O)(=O)c4cccs4)cc3C(=O)N([C@@H](C)CO)C[C@@H]2C)cc1,-5,-8
O=C(C[C@H]1C=C[C@H](NC(=O)Nc2cc(F)ccc2F)[C@@H](CO)O1)NCCCN1CCOCC1,-7,-7
C[C@H](CO)N1C[C@H](C)[C@H](CN(C)C(=O)c2cnccn2)Oc2ncc(-c3cccc(F)c3)cc2C1=O,20,4
Cc1ccc(S(=O)(=O)N(C)C[C@H]2Oc3ccc(NC(=O)CCC(F)(F)F)cc3CC(=O)N([C@H](C)CO)C[C@@H]2C)cc1,-6,-3
COc1ccc(-c2ccc3n(c2=O)C[C@@H]2[C@@H](CO)[C@H](C(=O)N(C)C)N(CC4CCOCC4)[C@H]32)cc1,2,9
CCCNC(=O)N1C[C@H](O)COC[C@@H]2O[C@H](CC(=O)N3CCOCC3)CC[C@H]21,8,9
CNC(=O)C[C@@H]1CC[C@@H]2[C@H](COc3ccc(NC(=O)Nc4ccccc4F)cc3C(=O)N2C)O1,6,8
OC[C@H]1[C@@H](c2ccc(-c3ccccc3)cc2)[C@@H]2CN(CCC(F)(F)F)CCCCN12,-32,-23

# Ten successive entries already listed, for reference:
SMILES,Vaccinia inh,Vaccinia inh Venus
O=C(NCCN1CCCCC1)[C@@H]1N[C@@H]2c3ccc(-c4ccccc4)c(=O)n3C[C@@H]2[C@H]1CO,12,10
C[C@H](CO)N1C[C@H](C)[C@@H](CN(C)C(=O)Nc2ccccc2)Oc2ncc(C3=CCCC3)cc2C1=O,13,12
Cc1ccc(S(=O)(=O)N(C)C[C@@H]2OCCCC[C@@H](C)Oc3ccc(NS(=O)(=O)c4cccs4)cc3C(=O)N([C@@H](C)CO)C[C@@H]2C)cc1,-5,-8
O=C(C[C@H]1C=C[C@H](NC(=O)Nc2cc(F)ccc2F)[C@@H](CO)O1)NCCCN1CCOCC1,-7,-7
C[C@H](CO)N1C[C@H](C)[C@H](CN(C)C(=O)c2cnccn2)Oc2ncc(-c3cccc(F)c3)cc2C1=O,20,4
Cc1ccc(S(=O)(=O)N(C)C[C@H]2Oc3ccc(NC(=O)CCC(F)(F)F)cc3CC(=O)N([C@H](C)CO)C[C@@H]2C)cc1,-6,-3
COc1ccc(-c2ccc3n(c2=O)C[C@@H]2[C@@H](CO)[C@H](C(=O)N(C)C)N(CC4CCOCC4)[C@H]32)cc1,2,9
CCCNC(=O)N1C[C@H](O)COC[C@@H]2O[C@H](CC(=O)N3CCOCC3)CC[C@H]21,8,9
CNC(=O)C[C@@H]1CC[C@@H]2[C@H](COc3ccc(NC(=O)Nc4ccccc4F)cc3C(=O)N2C)O1,6,8
OC[C@H]1[C@@H](c2ccc(-c3ccccc3)cc2)[C@@H]2CN(CCC(F)(F)F)CCCCN12,-32,-23

# Carrying on:
SMILES,Vaccinia inh,Vaccinia inh Venus
C[C@H](CO)N1C[C@H](C)[C@@H](CN(C)S(=O)(=O)c2cccc(F)c2)Oc2ncc(Br)cc2C1=O,12,5
C[C@@H](O)C#Cc1cnc2c(c1)C(=O)N([C@@H](C)CO)C[C@H](C)[C@@H](CN(C)C(=O)c1ccccc1)O2,17,1
Cc1noc(C)c1S(=O)(=O)N(C)C[C@H]1OCCCC[C@H](C)Oc2ccc(NC(=O)NC(C)C)cc2C(=O)N([C@H](C)CO)C[C@H]1C,17,17
CCCNC(=O)N1C[C@H](O)COC[C@H]2O[C@H](CC(=O)N3CCN(C)CC3)CC[C@@H]21,15,14
C[C@H](CO)N1C[C@H](C)[C@H](CN(C)S(=O)(=O)c2cccs2)Oc2ccc(NC(=O)C3CC3)cc2C1=O,5,2
CNC[C@@H]1Oc2cc(C#Cc3ccccc3F)ccc2S(=O)(=O)N([C@@H](C)CO)C[C@H]1C,-9,0
CCCNC(=O)N1C[C@H]2[C@@H](c3ccccc31)[C@H](CO)N2C(=O)c1ccncc1,1,6
COCCNC(=O)C[C@@H]1C[C@@H]2c3cc(NC(=O)COC)ccc3O[C@@H]2[C@@H](CO)O1,5,1
COCCCNC(=O)[C@@]1(Cc2ccccc2CN=[N+]=[N-])COC(c2ccc(OCCCO)cc2)=N1,-5,-3
C[C@@H]1CN([C@H](C)CO)C(=O)c2cc(NC(=O)Nc3ccc(F)cc3)ccc2O[C@H]1CN(C)Cc1ccc(-c2ccccc2)cc1,?,·
COCC(=O)N1CC(=O)N2[C@H](CO)[C@H](c3ccc(-c4ccncc4)cc3)[C@@H]2C1,3,0
C[C@H]1CCCCO[C@@H](CN(C)S(=O)(=O)c2cccs2)[C@@H](C)CN([C@@H](C)CO)C(=O)c2cc(NC(=O)Nc3ccc(C(F)(F)F)cc3)ccc2O1,-12,-1
COCC(=O)Nc1ccc2c(c1)OC[C@H](C)N(C(=O)CC1CC1)C[C@H](C)[C@@H](OC)CN(C)C2=O,9,17
C[C@@H]1CN([C@@H](C)CO)C(=O)c2cc(C3=CCCCC3)cnc2O[C@H]1CN(C)C(=O)Cc1cccnc1,3,-1
C[C@@H]1CN([C@@H](C)CO)C(=O)c2cc(NC(=O)CCC(F)(F)F)ccc2O[C@H]1CN(C)S(=O)(=O)c1ccccc1,12,2
Cc1noc(C)c1S(=O)(=O)Nc1ccc2c(c1)CC(=O)N([C@H](C)CO)C[C@H](C)[C@@H](CN(C)S(=O)(=O)c1c(C)noc1C)O2,15,25
CCCNC(=O)N1[C@@H](CO)[C@H](c2ccccc2)[C@@H]1CNC(=O)c1ccccc1,12,7
COc1ccc(S(=O)(=O)N(C)C[C@H]2Oc3ccc(NC(=O)CCCCCC(=O)Nc4ccccc4N)cc3C(=O)N([C@@H](C)CO)C[C@@H]2C)cc1,4,12

# Bioassay records as filed in PubChem.
